Source: PubChem BioAssay (National Center for Advancing Translational Sciences (NCATS))
VACV Venus inh: inhibitors of vaccinia virus (Venus reporter); AID 720580; Vaccinia virus Venus reporter expression, fluorescence; Potency, µM (series often up to 36.5 µM), for the others: at the highest dose activity change, negative = inhibition, most hits filed as inhibitors; 0.46% of 330,000 active; active means well fitted inhibition curve with a large enough effect; inconclusive means small, poorly fitted or top-dose-only effect; inactive means no such curve, though single readings can be large or run the other way; tested in A549 cells; also: nearly all actives have a fitted effect of over 30% in size; inactives centre near -10
VACV mCherry inh: vaccinia inhibition (mCherry reporter); Vaccinia virus mCherry reporter infection, fluorescence; about a quarter of the inactives have no number; Potency, µM (titrated, usually from 36.5 µM), for the others: top-dose activity change, negative = inhibition, actives largely listed as inhibitors; 0.63% of 310,000 active; AID 720579; active = well fitted inhibition curve with a large enough effect; inconclusive = small, poorly fitted or top-dose-only effect; inactive = no such curve, though single readings can be large or run the other way; tested in A549 cells; also: nearly all actives have a fitted effect of over 35% in size; inactives centre near -10
Starred values were filed as active, the others as inactive; i = inactive; u = inconclusive; x = not tested or not shown; & = joins results of further samples; [ ] = another dose, or the depositor's remark. % is scaled to controls: 0 for no effect and ±100 for the full control effect; potency is read from the fitted curve at half-maximal effect.

SMILES | VACV Venus inh | VACV mCherry inh
CCOc1ccccc1NC(=O)c1c(NC(=O)c2cccc(C)c2)sc2c1CCC2 | -6% | -12%
COc1cc(-c2nc3ccc(C)cn3c2NCc2ccccc2)ccc1-c1cccc(Cl)c1 | -21% | u
CCOc1ccc(C(=O)Nc2c(C(=O)Nc3ccccc3F)oc3ccccc23)cc1OCC | 1% | 8%
O=C(O)CSc1nc2ccc(NC(=O)COc3ccc(Cl)cc3)cc2s1 | -6%[7.34 µM] | -10%[7.34 µM]
C=CCN1C(=O)c2cccc3c(Br)ccc(c23)C1=O | -17% | i
CNc1nnc(-c2ccc(N(C)C)cc2)s1 | -11% | u
CCCCOC(=O)c1ccc(NC(=O)C2(c3cccs3)CCOCC2)cc1 | -4% | -11%
COc1cccc(S(=O)(=O)N(C)C[C@@H]2Oc3cc(C#CCN(C)C)ccc3S(=O)(=O)N([C@H](C)CO)C[C@@H]2C)c1 | -8% | i
COc1cc(C2CC(=O)Nc3c2c(=O)nc2c(C)cccn32)cc(OC)c1OC (stereo not drawn) | -3% | -3%
Cc1ccc(S(=O)(=O)N2CCN(S(=O)(=O)N3CCC(C)CC3)CC2)c(C)c1 | -5% | -4%
O=C(CSc1nnc(NC(=O)C2CC2)s1)Nc1ccc2c(c1)OCCO2 | 3% | -3%
CCCc1nnc(SCC(=O)N2CCOCC2)n1CCCOC | -7% | -7%
Nc1ccc(CC2=NCCN2)cc1 | -9% | -10%
CC(=O)O[C@H]1C(=O)[C@@]2(C)[C@H]([C@H](OC(=O)c3ccccc3)[C@]3(O)C[C@H](OC(=O)[C@H](O)C(NC(=O)c4ccccc4)c4ccccc4)C(C)=C1C3(C)C)[C@]1(OC(C)=O)CO[C@@H]1C[C@@H]2O (stereo partly drawn) | -25% | u
Cc1ccc(C(c2nnnn2Cc2cccs2)N2CCN(Cc3ccc4c(c3)OCO4)CC2)cc1 (stereo not drawn) | -29% | -20%
COc1ccc(NC(=O)/C=C/c2ccccc2)cn1 | -9% | -13%
CCc1ccccc1Nc1nc2cc(Cl)c(Cl)cc2nc1-n1nc(C)cc1C | -8% | -10%
CC(=NNc1nc2ccccc2s1)c1ccncn1 | u | 2.8µM*
COc1cccc2[nH]c3c(N4CCC(C(N)=O)CC4)ncnc3c12 | -8% | -19%
COc1ccc(OC2C(=O)N(CCc3ccc(OC)c(OC)c3)C2c2ccc3c(c2)OCO3)cc1 (stereo not drawn) | -24% | -24%
O=C(Nc1nnc(C2CCCCC2)s1)C1CC(=O)N(c2ccccc2)C1 (stereo not drawn) | -7% | -9%
Cn1c(C(=O)N2CCc3ccccc3C2)cc2c(=O)n3ccccc3nc21 | -1% | -8%
Cc1ccc(OCC(=O)Nc2cccc3ccc(C)nc23)c(C)c1 | -18% | -22%
Cc1ccccc1C1=CCN(c2ncc(NC(=O)c3ccc(Cl)cc3)cc2C(=O)O)CC1 | -2%[7.34 µM] | 3%[7.34 µM]
COc1ccc(N=Nc2ccc(CO)cc2)cc1 | -13% | -6%
CC1(C(=O)N(CC(=O)NC2CCCC2)C2CCCC2)CC(=O)N=C2C=CC=CN21 (stereo not drawn) | -1% | i
CC(OC(=O)c1nc(Cl)ccc1Cl)C(=O)Nc1ccccc1F (stereo not drawn) | -6% | i
CCCCn1c(N)c(N(CCC(C)C)C(=O)c2ccc([N+](=O)[O-])o2)c(=O)[nH]c1=O | 6% | -12%
S=C(Nc1ccc(Cl)cc1)NC1CC2CCCC(C1)N2C1CC1 (stereo not drawn) | -25% | -11%
Cc1c2cnn(CC(=O)NCCc3ccccc3)c(=O)c2c(C)n1Cc1ccccc1Cl | -6% | 0%
CCN1/C(=C\C(C)=O)Sc2ccc(OC)cc21 | -15% | -11%
O=c1[nH]c(=O)n(C2CCCCC2)c(O)c1C=NCCCn1ccnc1 | -22% | x
Cc1cccc(NC(=O)C(=O)C2C(=O)Nc3ccccc32)c1 (stereo not drawn) | -20% | -9%
COc1ccc(C)cc1NS(=O)(=O)c1ccc(-c2cnc(C3CC3)o2)cc1 | u | u
OC1C=CSc2nc3ccccc3n21 (stereo not drawn) | 80%[activator] | x
O=[N+]([O-])c1ccc(S(=O)(=O)N2CCN(C3CCN(Cc4ccccc4)CC3)CC2)cc1 | -15% | -10%
COc1ccc(OC)c(CN2CCC(CO)(CCOc3ccccc3)CC2)c1 | -8% | i
Cc1cccc(N2CC(C(=O)Nc3nnc(SCCC4OCCO4)s3)CC2=O)c1 (stereo not drawn) | -6% | -17%
Cc1cc(C)cc(C(=O)NC(CC(N)=O)c2ccc(NCCN3CCOCC3)c([N+](=O)[O-])c2)c1 (stereo not drawn) | -4% | i
O=C(O)COc1ccccc1/C=N/NC(=O)COc1ccc(-c2ccccc2)cc1 | -4% | -12%
CSc1nc2nc(C)cc(-c3ccccc3)n2n1 | u | -18%
COC(=O)CNC(=O)c1cnn(-c2ncc3c(n2)-c2ccccc2CCC3)c1C1CC1 | 3% | -14%
Cc1ccc(NC(=O)NC(=O)CN2C(=O)NC3(CCCCCCC3)C2=O)c(C)c1 | -22% | -24%
CSc1nc2ccc(NC(=O)c3ccccn3)cc2s1 | -21% | -4%
Cc1ccc(C2=[N+]([O-])C3(CCCCC3=O)N(O)C2(C)C)cc1 (stereo not drawn) | u | i
Cc1cccn2c(CNCC3(c4ccccc4)CCCC3)c(C(=O)N3CCOCC3)nc12 | -19% | -28%
Cc1nn2c(-c3cccc(NC(=O)CN4CCOCC4)c3)nnc2c2ccccc12 | 1% | i
O=C(CCN=C1NS(=O)(=O)c2ccccc21)OCc1c(F)c(F)c(F)c(F)c1F | -25% | u
Cc1noc(C)c1C(=O)N1CCN(c2cccc(Cl)c2)CC1 | -11% | -1%
CSc1ncccc1C(=O)OC(C)C(=O)Nc1cccc(S(=O)(=O)N2CCOCC2)c1 (stereo not drawn) | -12% | -21%
COc1cc(OC)c(N(C)C(=O)c2sc3nc4n(c(=O)c3c2C)CCCC4)cc1Cl | -4%[7.34 µM] | -5%[7.34 µM]
c1ccc(-c2nnnc3ccccc23)cc1 | -14% | -3%
CCCN1CN(c2ccccc2)C(=S)N(c2ccccc2)C1 | 3%[7.34 µM] | -2%[7.34 µM]
CC(C)C(OC(=O)c1nsc(Cl)c1Cl)C(=O)NC(C)(C)C (stereo not drawn) | -4% | i
CCOc1ccccc1OCCCC(=O)N(C)CC(=O)Nc1cc(C)ccc1C | -19% | -28%
COc1cccc(NC(=O)c2cc(OC)c(OC)c(OC)c2Br)c1 | 1% | i
NC(=O)c1c(NC(=O)CN2C(=O)CCC2=O)sc2c1CCCCC2 | -9% | i
COc1cc(C2N(C)CCC3(OCCO3)C2(C)C)cc(OC)c1OC (stereo not drawn) | -11% | i
CCC(C(=O)Nc1ccon1)c1ccccc1 (stereo not drawn) | -7% | -21%
CCOc1ccccc1CNC(=O)CSc1nnc(C)c2c(C)n(-c3ccccc3)nc12 | -15% | -10%

Further compounds:
SMILES | VACV Venus inh | VACV mCherry inh
Cn1c(Cn2nnc3ccccc32)nnc1SCC(=O)c1ccc(F)cc1 | -16% | i
COc1c(Cl)cnn(-c2ccc(Cl)c(Cl)c2)c1=O | -10% | i
CC1CCC(NC(=O)C2CCN(C(=O)Nc3ccccc3)CC2)CC1 (stereo not drawn) | -26% | i
O=C1c2cc3c(cc2CCC1c1ccc2c(c1)OCO2)OCO3 (stereo not drawn) | 1% | -12%
COc1ccc(NC(=O)CNC(=O)Cn2c(C)cc3ccccc3c2=O)cc1OC | -30%&-4% | u
Cc1cc(/C=C(\C#N)C(=O)OCC(=O)N(C)c2c(N)n(Cc3ccccc3)c(=O)[nH]c2=O)c(C)n1CC(C)C | -5% | u
COc1c2c(c(CCC(=O)O)c3c1C=CC(C)(C)O3)OC(C)(C)C=C2 | -3% | -16%
Cc1cccc(N2CCN(c3ccc(NC(=O)/C=C\C(=O)O)cc3)CC2)c1 | -1% | -1%
COc1ccc2c(C)c(CC(=O)N3C[C@H]4C[C@@H](C3)c3cccc(=O)n3C4)c(=O)oc2c1 | 6% | -8%
COC(=O)c1nc2ccc(C)cn2c1F | -14% | i
Cc1noc(C)c1C(=O)NCCc1c(C)[nH]c2ccccc12 | -5% | -1%
Cc1ccc(-n2c(C)cc(C(=O)COc3c(CO)cc(F)cc3CO)c2C)cc1C | -26% | -8%
CN1CCc2c(sc(NC(=O)Cc3ccccc3)c2C(N)=O)C1 | -30% | -24%
O=C(CSc1nc2ccccc2c(=O)n1-c1ccc(Cl)c(Cl)c1)Nc1ccc2c(c1)CCC2 | 2% | i
CCN1C(c2ccc(F)cc2)=CS/C1=C(/C#N)c1nnc2n1-c1ccccc1SC2 | -20% | -13%
O=C(CSc1nccn1Cc1ccco1)Nc1ccc(OC(F)(F)F)cc1 | -6% | i
CC(C)(C)NC(=O)CSc1nc2ccc(NC(=O)CSc3nnnn3Cc3ccccc3)cc2s1 | u | u
O=C(O)c1nn(Cc2ccc(Cl)cc2)c2ccccc12 | -4% | -4%
Oc1c(C(c2cccc(F)c2)N2CCN(Cc3ccccc3)CC2)sc2ncnn12 (stereo not drawn) | -12% | -18%
CCc1cc2c(=O)[nH]c(-c3ccccn3)nc2s1 | u | 2.8µM*
O=C(CCCN1C(=O)NC2(CCCC2)C1=O)Nc1ccc(F)cc1 | -8% | -15%
Cc1ccccc1CCNC(=O)C1CCN(S(=O)(=O)c2ccc3c(ccn3C)c2)CC1 | -8% | -15%
COc1ccc(-n2nnnc2C(CCSC)N2CCC3(CC2)C(=O)NCN3c2ccccc2)cc1 (stereo not drawn) | -7% | 25%
O=[N+]([O-])c1ccc(Oc2ccc(/C=N/O)cc2)nc1 | -15% | u
c1ccc2nc(N3CCOCC3)c(N3CCCC3)nc2c1 | -15% | -14%
CCC1CCCCN1C(=S)NC(=O)c1cc(S(=O)(=O)N2CCOCC2)ccc1C (stereo not drawn) | -8%[7.34 µM] | -11%[7.34 µM]
CC(=O)Nc1cc(NC(C)=O)ncn1 | 0% | -15%
CC1(C(=O)Nc2ccc3c(c2)OCCO3)CCN1C(=O)c1ccco1 (stereo not drawn) | 9% | -1%
CCc1ccc(C(=O)NNC(=O)c2ccc3c(=O)n4c(nc3c2)CCC4)cc1 | -4% | -9%
COc1ccc(C/C(N)=N/OC(=O)c2ccc(Cl)cc2)cc1 | -4% | i

Five entries out of the list, ordered by number of heavy atoms, high to low:
SMILES | VACV Venus inh | VACV mCherry inh
Cc1ccccc1CCNC(=O)C1CCN(S(=O)(=O)c2ccc3c(ccn3C)c2)CC1 | -8% | -15%
Oc1c(C(c2cccc(F)c2)N2CCN(Cc3ccccc3)CC2)sc2ncnn12 (stereo not drawn) | -12% | -18%
O=C(O)c1nn(Cc2ccc(Cl)cc2)c2ccccc12 | -4% | -4%
CCc1cc2c(=O)[nH]c(-c3ccccn3)nc2s1 | u | 2.8µM*
CC(=O)Nc1cc(NC(C)=O)ncn1 | 0% | -15%

Further compounds follow.
SMILES | VACV Venus inh | VACV mCherry inh
COc1ccccc1NC(=O)N(Cc1ccco1)C1CCN(C(C)=O)CC1 | -11% | -6%
Cc1c(CNCCc2ccc(Cl)cc2)c(C(=O)O)c(C)n1-c1ccccc1 | -2% | -13%
O=S(=O)(c1cccc(C(F)(F)F)c1)N1CCN(C(=S)NC2CC2)CC1 | 6% | -9%
O=C(NC(=S)N1CCCC(C(F)(F)F)C1)c1ccc(F)cc1 (stereo not drawn) | -5% | -1%
CC1=C(c2ccc(Cl)cc2)S(=O)(=O)N=C1N1CCC(C(=O)NCCc2ccco2)CC1 | 0% | -6%
CC(=O)Nc1ccc(S(=O)(=O)N2CCC(NC(=O)C(Cc3cccc(F)c3)NC(C)=O)CC2)cc1 (stereo not drawn) | -7% | -22%
CCOc1ccc(NC(=O)c2nsc(Cl)c2Cl)cc1 | -5% | i
COc1ccccc1CNC(=O)COC(=O)c1cc(S(=O)(=O)N2CCOCC2)ccc1Cl | -18% | -17%
O=C(Nc1cccc2ccccc12)N1CCCN(c2c(Cl)cncc2Cl)CC1 | 1% | u
Cc1nc(SCC(=O)Nc2ccc(S(=O)(=O)N3CCOCC3)cc2)c2c(C)c(C)sc2n1 | u | -13%
COc1cc(CN2CCNC(=O)C2CC(=O)N2CCCN(C(C)=O)CC2)cc(OC)c1 (stereo not drawn) | -4% | -7%
Cc1cccc(Cn2c(=O)oc3ccc(C)cc32)c1 | -6% | -14%
CCOc1ccc(N(CC(=O)NC2CCCCC2)C(=O)Cn2nnc(-c3ccc(C)o3)n2)cc1 | -7% | -9%
COc1cccc(CC(=O)Nc2sc3c(c2C(N)=O)CCCC3)c1 | -8% | -12%
CC1CC(C)CN(c2cc3c(cc2[N+](=O)[O-])C(=O)N(c2ccccc2)C3=O)C1 (stereo not drawn) | -11% | i
COc1ccccc1C(C)NC(=O)CCC(=O)N1CCN(S(=O)(=O)c2ccc(Cl)cc2)CC1 (stereo not drawn) | -28% | -16%
CCOC(=O)C1(Cc2ccccc2)CCN(Cc2cn(CC(=O)OC)c3ccccc23)CC1 | -6% | -9%
CCOC(=O)C(=O)N1CCN(c2nc(-c3ccc(Cl)cc3)cs2)CC1 | -27% | u
CC(=O)c1ccc(NS(=O)(=O)c2c(C)cc(C)cc2C)cc1 | -22% | -22%
